Rango dissoc inh = prevents RanGTP from dissociating the Rango-importin beta complex; Potency, µM (doses to about 46.1 µM), inactives show top-dose activity change, negative = inhibition; hit rate 0.071% among 340,000; Biochemical FRET Rango-importin beta, RanGTP-induced dissociation; O95149+P62826; active means falling FRET ratio curve, often poorly fitted, with flat reads before Ran was added; inconclusive means other falling curves, or compound fluorescence or quenching; inactive means flat or rising ratio curve;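 further: potency means the concentration at half of the fitted maximal effect; % of control where 0% means no effect; nearly all actives have a fitted effect of over 45% in size; -100% = wells without RanGTP and RCC1; the record marks most hits as doubtful in a second field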
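Quantitative HTS using a FRET biosensor: 0.1 uM Rango, 0.25 uM importin beta, 0.6 uM Ran, 2 mM GTP, 0.2 uM RCC1 final, PBS with DTT, Tween-20 and BSA. Post-read taken 45 min after Ran addition.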
GLA inh pH 4.5 = blocks human alpha-galactosidase A at pH 4.5; P06280; purified enzyme, 4-MU-alpha-Gal fluorescence, pH 4.5; activity change, negative = inhibition, % at 105 µM; 230,000 tested, under 10 active; inconclusive = small, poorly fitted or top-dose-only inhibition, or a rising curve; inactive = flat fitted curve, though single readings scatter; no compound was filed as active;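 further: 0% = full activity with enzyme and -100% = basal without enzyme; dose as in the result columns while the protocol names 77 µM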
Rango-impB inh = Rango-importin beta binding inhibition. AID 540263. hit rate 0.031% among 340,000. Rango CFP/YFP FRET sensor + importin beta, 45 min. Q14974. Potency, µM (top dose mostly 92.2 µM), without a hit: top-dose inhibition of complex formation; active = rising FRET ratio curve, often small or poorly fitted; inconclusive = mostly compound fluorescence or quenching in the first reads; inactive = flat curves in all reads;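 further: potency means the concentration at half of the fitted maximal effect; 0% = DMSO wells and 100% = buffer wells lacking importin beta; nearly all actives have a fitted effect of over 15% in size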
Target sequence (Q14974 whole entry, looked up): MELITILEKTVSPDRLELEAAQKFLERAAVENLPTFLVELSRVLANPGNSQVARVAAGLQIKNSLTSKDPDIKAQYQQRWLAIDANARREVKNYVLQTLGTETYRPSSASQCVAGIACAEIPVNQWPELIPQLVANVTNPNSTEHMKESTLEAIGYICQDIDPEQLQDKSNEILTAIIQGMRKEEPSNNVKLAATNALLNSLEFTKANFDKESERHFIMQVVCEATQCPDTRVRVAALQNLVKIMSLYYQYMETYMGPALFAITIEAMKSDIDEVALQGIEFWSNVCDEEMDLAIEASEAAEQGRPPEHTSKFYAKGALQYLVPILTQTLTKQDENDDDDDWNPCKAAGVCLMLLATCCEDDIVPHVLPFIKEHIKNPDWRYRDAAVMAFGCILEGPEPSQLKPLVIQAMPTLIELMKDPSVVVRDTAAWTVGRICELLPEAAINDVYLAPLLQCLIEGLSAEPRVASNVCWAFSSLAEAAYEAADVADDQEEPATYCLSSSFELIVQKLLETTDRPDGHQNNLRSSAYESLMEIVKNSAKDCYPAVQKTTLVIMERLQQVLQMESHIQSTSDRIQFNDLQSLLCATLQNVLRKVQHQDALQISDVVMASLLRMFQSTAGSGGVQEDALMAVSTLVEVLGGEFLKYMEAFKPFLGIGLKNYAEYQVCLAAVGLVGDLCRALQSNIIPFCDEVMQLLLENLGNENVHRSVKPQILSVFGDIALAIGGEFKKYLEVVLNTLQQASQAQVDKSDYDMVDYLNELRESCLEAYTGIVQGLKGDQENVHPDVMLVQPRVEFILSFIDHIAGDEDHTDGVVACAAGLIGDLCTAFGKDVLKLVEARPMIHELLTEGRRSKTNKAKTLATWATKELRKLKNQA
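FRET biosensor Rango (snurportin 1 IBB between N-terminal EYFP and C-terminal Cerulean), 50 nM in PBS/1 mM DTT/0.02% Tween-20/0.1% BSA, preincubated 5 min RT with compound; 0.125 microM importin beta added, 45 min RT, CFP/YFP FRET ratio read.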
miR-21 reporter = miR-21 reporter, rising signal; HeLa miR-21 FLuc reporter, luciferase, 48 h; Potency, µM (top dose mostly 38.3 µM), for the others: at the top dose reporter change, positive = more light; 340,000 tested, under 10 active; active = well fitted rising curve with a large enough effect; inconclusive = small, poorly fitted or top-dose-only effect; inactive = no such curve, though single readings can be large or run the other way;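 further: % of control where 0% means no effect; miR-21 action dims this reporter so a rising signal means less miR-21 action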
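HeLa cells stably expressing CMV-driven firefly luciferase with a downstream miR-21 binding sequence, endogenously expressing miR-21, were treated with titrations (up to about 40uM final) for 48 hours at 37 degree Celsius. Luciferase luminescence was read after lysis.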
Active calls of the source: *; u = inconclusive; x = no result given.

Rango dissoc inh,GLA inh pH 4.5,Rango-impB inh,miR-21 reporter,smiles
-10.3%,2.3,-2.9%,-15.1%,Nc1nc2c(s1)CCc1c-2cnn1-c1ccccc1
1.9%,-7.2,1.4%,-0.8%,CCOc1ccc2ccccc2c1CNCCN1CCOCC1
-21.2%,-5.3,3.2%,-0.4%,COc1cc(Cl)cc(C2NC(=O)NC(C)=C2C(C)=O)c1OCC(=O)O (configuration not stated)
-1.9%,-1.5,0.0%,-1.2%,CCOC(=O)CCc1c(C)c2ccc(OCc3nn[nH]n3)cc2oc1=O
-0.2%,x,2.9%,x,CN(C(=O)c1cccc(NC(=O)Cc2cccc(NC(=O)C3CCN(C(=O)CCc4ccccc4)CC3)c2)c1)C1CC1
7.8%,0.0,-0.1%,2.7%,Cc1ccc(Cl)cc1NC(=S)N(CCCN1CCOCC1)Cc1ccco1
-2.9%,x,-2.1%,x,O=C(OCC(=O)N1CCC(Cc2ccccc2)CC1)c1cc(Br)ccc1O
-5.7%,-5.0,-3.2%,-4.5%,CCCc1cc(=O)c2c(O)cccc2o1
-5.6%,8.7,-1.9%,-10.9%,O=C(/C=C/c1ccccc1[N+](=O)[O-])N1CCN(c2ccc(F)cc2)CC1
1.3%,-6.6,2.4%,6.5%,CCOC(=O)N1CCC(N2C(=O)c3ccccc3C2Nc2ccc(C)cc2)CC1 (configuration not stated)
-9.9%,1.8,-0.2%,-35.7%,NS(=O)(=O)c1ccc(NC(=O)CSc2ccccc2)cc1
-3.6%,-1.8,2.6%,-22.1%,Cc1cccc(OCC(=O)Nc2cc(C)ccc2O)c1
-0.1%,14.2,1.7%,-42.7%,Cn1c(C(=O)Nc2ccccc2)cc2sccc21
8.9%,x,1.2%,x,Cc1[nH]c2ccc(C(=O)OC(C)C(=O)NC3CCCCC3C)cc2c1C (configuration not stated)
13.9%,x,-2.2%,0.1%,O=C(O)C/C(=C\c1cc2c(cc1Br)OCO2)c1nc2ccccc2s1
6.0%,x,-0.7%,x,Oc1c(Cl)cc(Oc2cc(Cl)c(O)c(CN3CCOCC3)c2)cc1CN1CCOCC1
-7.9%,x,-3.8%,x,Cc1ccccc1S(=O)(=O)N1C[C@H]2CON(C)[C@H]2C[C@H]1c1cccc(Br)c1
20.0%,-7.6,0.1%,-0.2%,CC(C)(C)C(=O)Nc1ccc(N2CCN(c3ccc(C(F)(F)F)cn3)CC2)nc1
-4.7%,x,2.7%,3.0%,COC(=O)CNc1cc(S(=O)(=O)N2CCCCC2)ccc1Oc1cccc(C)c1
-9.2%,0.5,0.5%,-11.0%,Cc1cccc(Oc2ncc(-c3ccc(Cl)cc3)cn2)c1C
7.2%,-12.4,-4.0%,-0.4%,Cc1nc(N2CCN(c3ccccc3)CC2)nc2c1C(=O)CCC2
-10.2%,x,-1.5%,x,S=C1NC[C@H](Cc2ccccc2)N1CC1CCN(CCCC2CCCC2)CC1
x,-6.3,x,-16.8%,Cc1ccc(Cl)cc1Nc1nc(-c2sc(NC(=O)c3cccc(Cl)c3)nc2C)cs1
-10.7%,x,-0.6%,6.6%,COc1ccc(Cl)cc1S(=O)(=O)N1CCCC(C(=O)NCc2ccncc2)C1 (configuration not stated)
-9.7%,-1.7,-0.6%,-28.8%,O=C(O)c1ccc(NC(=S)NC(=O)c2cccc(COc3ccccc3)c2)cc1
-16.8%,x,-4.3%,-2.5%,Cc1ccc(C(=O)N/C(=C\c2cccc([N+](=O)[O-])c2)C(=O)Nc2cccc(C(=O)O)c2)cc1
-0.8%,x,0.6%,10.5%,COc1ccc(C(C)=O)cc1CN(c1ccccc1OC)S(=O)(=O)c1cccs1
-3.9%,x,1.7%,-30.3%,Cc1ccc(NC(=O)CNC(=O)c2ccco2)c(Cl)c1
-12.9%,1.4,-3.1%,-0.2%,Cc1ccc(Sc2ncccc2C(=O)O)c(C)c1
-16.0%,0.3,-2.8%,-0.9%,Cc1cc(C)nc(NC2=NCCN2C(=S)Nc2ccc(C)c(C)c2)n1
1.3%,x,-0.4%,-7.2%,CC(C)NC(=O)c1ccc2c(c1)N(CC(=O)N1CCCC1)C(=O)C(C)(C)O2
23.3%,-0.5,1.4%,0.9%,Cc1cccc(C)c1NC(=O)NN1C(C)CCCC1C (configuration not stated)
-11.7%,x,1.3%,x,CCOc1cc(N2CCOCC2)c(OCC)cc1NC(=O)c1ccc(OC)c(S(=O)(=O)N2CCOCC2)c1
-25.6%,x,2.3%,-5.0%,CCC(C)(C)NC(=O)CN(C(=O)CCC(=O)Nc1ccccn1)c1ccc2c(c1)OCO2
10.5%,x,-0.1%,-3.1%,OC(CN1CCOCC1)Cn1cnc2ccccc21 (configuration not stated)
-9.8%,x,u,-2.1%,Cc1c(OC(C)C(=O)NCc2ccncc2)ccc2c3c(c(=O)oc12)CCC3 (configuration not stated)
-16.7%,x,5.3%,-4.1%,Cc1cc(C)c2c(N)c(C(=O)Nc3c(C)n(C)n(-c4ccccc4)c3=O)sc2n1
-4.1%,7.9,-0.3%,-4.8%,O=C(N/N=C/c1ccccc1)c1cc(-c2ccc3c(c2)OCO3)n[nH]1
18.0%,x,0.6%,x,CN(CCOc1ccccc1)C(=O)c1ccc(Cl)c(S(=O)(=O)N2CCCCC2)c1
3.2%,-13.4,0.2%,1.9%,COc1cc(NS(=O)(=O)N2CCCC2)cc(OC)c1OC
3.9%,x,-0.9%,-0.8%,CC1CCCC(C)N1CC(O)COCc1ccccc1 (configuration not stated)
8.5%,1.6,1.4%,-34.4%,Cn1c(=NCC(O)COc2ccccc2)sc2ccccc21 (configuration not stated)
15.5%,-5.2,3.5%,2.0%,O=C(NCC(=O)N(c1ccccc1)C(C(=O)NC1CCCC1)c1cccnc1)c1ccco1 (configuration not stated)
7.2%,-3.7,-4.2%,-3.4%,CC1(C)Cc2c(cnn2-c2ccccc2)C(=O)/C1=N\NC(=O)c1ccccc1
6.1%,x,-3.0%,x,CNC(=O)c1c(NC(=O)CS(=O)(=O)c2ccc(Cl)cc2)sc(C)c1C
-10.1%,10.8,-1.4%,0.9%,Cc1ccc(/C=C(\NC(=O)c2ccc(C)cc2)C(=O)NCCCn2ccnc2)cc1
-0.6%,-19.1,2.0%,-2.2%,CS(=O)(=O)N(Cc1ccccc1)c1ccc(C(=O)N2CCOCC2)cc1
1.7%,5.2,-0.8%,-2.3%,CCCCN(CC)C(=O)c1ccc2c(c1)OCO2
-10.8%,-0.2,-3.2%,-1.7%,COC(=O)C1=C(C)N(c2ccc(C)c(C)c2)/C(=C/c2ccco2)C1=O
3.2%,-1.4,-2.5%,-0.4%,COc1ccc(Cl)cc1NC(=S)N1CCN(c2ncccn2)CC1

Additional entries follow.
Rango dissoc inh,GLA inh pH 4.5,Rango-impB inh,miR-21 reporter,smiles
7.8%,-7.4,u,-10.9%,Cc1ccc(/C=N/N2C(=O)C3C(C2=O)C2C=CC3C23CC3)o1 (configuration not stated)
-10.9%,8.9,-0.5%,-12.7%,COc1ccc(-c2ocnc2C(=O)Nc2ccccc2N2CCCCC2)cc1
-13.1%,x,0.2%,x,COc1ccc(S(=O)(=O)Nc2cccc3c2O[C@H](CN(C)C(=O)Nc2ccc(C(F)(F)F)cc2)[C@@H](C)CN([C@H](C)CO)C3=O)cc1
6.9%,-2.0,0.6%,-2.5%,Cc1onc(-c2ccccc2Cl)c1C(=O)N1CCN=C1SCc1cccnc1
2.4%,-2.3,-2.2%,0.2%,COc1ccc(/C=N\NC(=O)COc2ccc(C(C)(C)C)cc2)cc1Cn1nc(C)cc1C
7.9%,-2.1,2.4%,-18.3%,CCc1nc2sc3c(=O)[nH]cnc3c2c2c1CSC(C)(C)C2
16.0%,x,-1.4%,19.2%,O=C(Nc1ccc2c(c1)CCCN2C(=O)c1cccs1)c1c(F)cccc1Cl
13.1%,-2.7,0.6%,17.1%,CC(C)Nc1nc2nonc2nc1Nc1ccccc1
12.5%,6.1,-1.2%,-0.7%,Cc1ccc(O)c(C(CC(=O)NC(C)C)c2ccccc2)c1 (configuration not stated)
7.8%,-9.0,-2.9%,0.3%,CO/N=C/C1C(=O)NN=C1c1ccccc1 (configuration not stated)
-5.3%,1.4,1.0%,1.9%,COc1ccc(/C=N\NC(=O)/C(=C\Nc2nccc(C)n2)NC(=O)c2ccccc2)cc1
-16.3%,x,3.5%,1.7%,CCOc1ccc(NC(=O)Cc2nnc(SCC(=O)N3CCOCC3)n2C)cc1
23.6%,x,-4.5%,-3.2%,COc1ccc(C(=O)NCCNC(=O)c2ccccn2)cc1
8.4%,-9.8,1.5%,-5.0%,O=C(CCc1nc(-c2ccccc2)no1)Nc1cc(C(F)(F)F)ccc1Cl
-9.3%,x,-0.2%,x,Cc1ccc(CNC(=O)CN(C)C2=NS(=O)(=O)c3ccccc32)cc1
u,x,u,4.4%,COc1cc(/C=C2/SC(=S)N(Cc3ccccc3)C2=O)cc(Cl)c1O
-4.0%,-3.9,2.2%,5.4%,CCOc1ccc(S(=O)(=O)Nc2cc(S(=O)(=O)N(CC)CC)ccc2N2CCCC2)cc1
-6.5%,x,0.5%,x,CN(C)CCN(C(=O)C1=COCCO1)c1nc2ccc(F)cc2s1
-1.6%,-5.5,6.3%,-7.0%,O=C(c1ccc(CS(=O)(=O)c2ccccc2)o1)N1CCOCC1
6.5%,x,1.9%,-3.5%,COC(=O)c1[nH]c(=O)c2ccccc2c1O
8.6%,-4.9,1.6%,-8.4%,Nc1nc(F)cc(N2CCCCCC2)n1
21.4%,x,0.1%,-30.1%,CCOc1ccc(-n2nc3ccc(NC(=O)CC)cc3n2)cc1
-19.1%,x,-3.4%,x,O=C(COc1cccc(C(F)(F)F)c1)NCC(c1ccco1)N1CCCC1 (configuration not stated)
-4.2%,-2.4,-0.6%,u,CC(C)(C)c1cc(C(=O)N/N=C/c2ccc([N+](=O)[O-])s2)n[nH]1
5.5%,-3.7,3.7%,16.6%,COc1ccc(/C=C/C(=O)C2CC2)cc1COc1cccc(C)c1C
5.9%,x,-1.3%,-28.4%,Cc1cccc(NC(=O)c2ccc3c(c2)CCN3S(C)(=O)=O)c1C
4.8%,-3.0,5.6%,0.8%,Cc1ccccc1-c1cc(C(=O)Nc2nc3c(s2)CCCC3)c2ccccc2n1
10.2%,7.6,2.1%,1.3%,CCN(CC)P(=O)(C(NC(=O)OC)C(F)(F)C(F)(F)C(F)(F)C(F)F)N(CC)CC (configuration not stated)
-5.7%,-2.9,4.4%,-6.2%,CCOc1cccc(C2C(C(=O)c3ccco3)=C(O)C(=O)N2Cc2ccncc2)c1 (configuration not stated)
1.1%,x,1.1%,x,O=C1CC(c2ccccc2)NN1 (configuration not stated)
8.8%,29.8,5.0%,1.2%,O=C(CSc1ccccc1)Nc1nnc(/C=C/c2ccccc2)s1
-4.5%,x,-0.7%,0.0%,CN(C(=O)CSc1nc(O)cc(=O)n1-c1ccccc1F)c1ccccc1
u,x,2.4%,-1.2%,O=C(CNC(=O)N1CC(=O)Nc2ccccc21)Nc1ccc(Cl)cc1

4 entries from above, field by field.
Cc1cccc(NC(=O)c2ccc3c(c2)CCN3S(C)(=O)=O)c1C
  Rango dissoc inh: 5.9%	GLA inh pH 4.5: x	Rango-impB inh: -1.3%	miR-21 reporter: -28.4%
Cc1ccccc1-c1cc(C(=O)Nc2nc3c(s2)CCCC3)c2ccccc2n1
  Rango dissoc inh: 4.8%	GLA inh pH 4.5: -3.0	Rango-impB inh: 5.6%	miR-21 reporter: 0.8%
CCN(CC)P(=O)(C(NC(=O)OC)C(F)(F)C(F)(F)C(F)(F)C(F)F)N(CC)CC (configuration not stated)
  Rango dissoc inh: 10.2%	GLA inh pH 4.5: 7.6	Rango-impB inh: 2.1%	miR-21 reporter: 1.3%
CCOc1cccc(C2C(C(=O)c3ccco3)=C(O)C(=O)N2Cc2ccncc2)c1 (configuration not stated)
  Rango dissoc inh: -5.7%	GLA inh pH 4.5: -2.9	Rango-impB inh: 4.4%	miR-21 reporter: -6.2%

Compound activity: PubChem, National Center for Advancing Translational Sciences (NCATS)

Not all compounds are listed; the hit share may differ from the screen's.
